SmPrx2 inh – Schistosoma mansoni Prx2 inhibition. S. mansoni Prx2 activity coupled to TGR/GSH (TGR is thioredoxin glutathione reductase), NADPH fluorescence loss, qHTS; some inactives read as strong as hits. Potency, µM. 65,000 tested, 0.07% active. AID 448; active means full or partial inhibition curve with a strong effect at the top dose; inconclusive means weaker partial or single-point curve; inactive means no accepted curve; note: series up to 57 µM; many of its hits are not listed in these tables
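Prx2 inhibition was measured as reduced NADPH consumption when electrons flowed from NADPH through TGR and glutathione to Prx2 and H2O2. Plates were read kinetically over 8 min; enzyme reagents were held at 4 deg C during dispensing.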
LT uptake inh – blocks cellular internalization of anthrax lethal toxin | AID 912 | 70,000 tested, 0.67% active | Potency, µM (doses to about 40 µM), for inactives: at the highest dose activity change, negative = inhibition, most hits filed as inhibitors | Cells, anthrax lethal toxin internalization, FRET ratio (460/530); active = well fitted falling ratio curve with the 530 nm signal flat; inconclusive = other ratio curves, or a change in one channel alone; inactive = flat curves in the ratio and both channels; the % refers to the ratio; note: % is set by controls: 0 for no effect and ±100 for the full control effect; nearly all actives have a fitted effect of over 50% in size; tested in ME-180 cells; beta-lactamase reporter
An asterisk follows results filed as active; ? = inconclusive; . = no result given; & = joins results of further samples; [ ] = another dose, or the depositor's remark. Potency is the fitted concentration of half-maximal effect. The list is partial; count on the stated rates, not on these rows.

SMILES	SmPrx2 inh	LT uptake inh
CN1CC(=O)N/C1=N/C(=O)Nc1cccc(Cl)c1	.	13.3%
O=C(NCc1ccc2c(c1)OCO2)C1CCC(CNc2c(N3CCCCC3)c(=O)c2=O)CC1 (stereo not given)	>57	?
O=C(c1ccccc1F)N(Cc1ccc(F)cc1)C1CCS(=O)(=O)C1 (stereo not given)	>57	-4.4%
O=C(CSc1nnnn1-c1ccccc1Cl)Nc1ccc2c(c1)OCCO2	>57	?
N/C(=N\O)c1cn([C@@H]2O[C@@H](CO)[C@H](O)[C@@H]2O)c2ncnc(NO)c12	>57	-18.7%[8 µM]
CCOC(=O)C1CCN(C(=O)CN(c2ccc(OC)c(OC)c2)S(=O)(=O)c2ccccc2)CC1	>57	?
O=C1C(C=NCc2cccnc2)=C(O)c2ccccc21	>57	-16.5%
CC(=O)Nc1ccc(C(=O)n2nc(C)cc2C)cc1	>57	15.3%
CC(C)C12CN3CC(C(C)C)(CN(C1)C3c1ccccc1O)C2=O (stereo not given)	.	?
NS(=O)(=O)c1ccc(CCNC(=O)c2ccccc2F)cc1	>57	-1.6%

Single values from above:
Under SmPrx2 inh, CC(=O)Nc1ccc(C(=O)n2nc(C)cc2C)cc1 reads >57
Under LT uptake inh, NS(=O)(=O)c1ccc(CCNC(=O)c2ccccc2F)cc1 reads -1.6%
Under SmPrx2 inh, O=C(CSc1nnnn1-c1ccccc1Cl)Nc1ccc2c(c1)OCCO2 reads >57

New compounds follow:
SMILES	SmPrx2 inh	LT uptake inh
CC(C)Cc1cc(C(=O)NCCCN2CCOCC2)no1	>57	-9.8%
COc1ccccc1N1CCN(CC(=O)c2c(C)[nH]c3cc(C)ccc23)CC1	>57	-13.3%
O=c1c2c([nH]c3ccc(Br)cc13)CCCC2	>57	3.4%
COc1ccc(NC2CS(=O)(=O)CC2OC(=O)c2ccc(F)cc2)cc1 (stereo not given)	>57	-7.4%
O=C(CN1C(=O)c2cccc3cccc1c23)NCc1ccc2c(c1)OCO2	>57	-2.1%
O=C(Cc1ccccn1)Nc1ccccc1	>57	3.4%
CCNc1ncc2nc(CCc3ccccc3)c(=O)n(C[C@H]3CCCO3)c2n1	>57	?
Cc1cc(NC(=O)CSc2nnc(-c3ccc4c(c3)OCCO4)o2)no1	>57	6.0%
Cc1cc(C)c2c(=O)n(CC(=O)NCCCN3CCN(c4ccccc4F)CC3)sc2n1	.	?
CN(C(=O)c1ccno1)c1nnc(-c2ccccn2)s1	>57	-10.5%
CCOc1cccc2cc(C(=O)N3CCc4ccccc43)c(=O)oc12	>57	?
CC(=O)C1=C(C)Nc2ncnn2C1c1ccc(Cl)cc1 (stereo not given)	>57	?
CCOC(=O)CNC(=O)Cn1c(C)cc2ccccc2c1=O	>57	5.0%
COc1ccc(C(=O)CSc2nc3nc(C)cc(C)n3n2)cc1OC	>57	-2.4%
COc1ccc(NC(=O)N2CCCC2)cc1OC	>57	8.6%
Cc1onc(-c2ccccc2)c1C(=O)Nc1cccc(OC(C)C)c1	>57	-3.3%
Cc1nc(N2CCN(C(=O)c3ccco3)CC2)c2c3c(sc2n1)CCC3	>57	?
O=C(c1cncc(Br)c1)N1CCN(c2ccc(N3CCOCC3)nn2)CC1	>57	2.3%
COCCCN1C(=O)C(=O)/C(=C(/O)c2ccc(OCC(C)C)cc2)C1c1cccnc1 (stereo not given)	>57	8.6%
CCOCCOC(=O)C1=C(C)NC2=C(C(=O)CC(c3cccs3)C2)C1c1ccsc1 (stereo not given)	>57	?
CCOC(=O)N1CCN(C(=O)c2ccc3c(=O)n(CCC4=CCCCC4)c(=S)[nH]c3c2)CC1	>57	?
CC(=O)OCCNC(=O)c1cc2ccccc2oc1=O	>57	5.3%
C[C@@H](C(=O)NCC1CC1)[C@H]1C[C@]1(C)[C@H](NC(=O)OCc1ccccc1)c1ccccc1	>57	-12.4%
O=C(CSc1ccccc1)Nc1ccncc1	>57	-0.7%
Cc1nc2c(s1)sc1ccccc12	>57	-4.1%
COc1ccc(C(=O)n2nc(C)cc2C)cc1OC	>57	-6.3%
O=C(O)CCc1ccc(-c2ccccc2)n1-c1cccc(O)c1	>57	8.6%
COCCNC(=O)CN(C(=O)CCC(=O)Nc1cc(C)on1)c1ccc(C)cc1C	>57	4.7%
COc1cc(C(=O)Nc2ccc(-c3nc4cc(C)ccc4o3)c(O)c2)cc(OC)c1OC	>57	?
CCC(=NCCO)c1c(O)n(-c2ccc(Cl)cc2)c(=O)[nH]c1=O	>57	-4.2%

An excerpt from the list above, for reference:
SMILES	SmPrx2 inh	LT uptake inh
COc1ccc(C(=O)n2nc(C)cc2C)cc1OC	>57	-6.3%
O=C(O)CCc1ccc(-c2ccccc2)n1-c1cccc(O)c1	>57	8.6%
COCCNC(=O)CN(C(=O)CCC(=O)Nc1cc(C)on1)c1ccc(C)cc1C	>57	4.7%
COc1cc(C(=O)Nc2ccc(-c3nc4cc(C)ccc4o3)c(O)c2)cc(OC)c1OC	>57	?
CCC(=NCCO)c1c(O)n(-c2ccc(Cl)cc2)c(=O)[nH]c1=O	>57	-4.2%

Additional records follow.
SMILES	SmPrx2 inh	LT uptake inh
c1cc2c(cc1C1CCCCC1)c1c3n2CCN[C@H]3CCC1	>57	?
O=C(C1CCCN(S(=O)(=O)c2cccc3cccnc23)C1)N1CCN(c2ccc(F)cc2)CC1 (stereo not given)	>57	?
c1ccc(-c2nc3nonc3nc2-c2ccccc2)cc1	>57	?
COc1ccc(Cl)cc1N1CC(C(=O)Nc2nccs2)CC1=O (stereo not given)	>57	-8.1%
c1ccc2c(c1)oc1c(NCCCN3CCOCC3)ncnc12	>57	-37.6%
O=C(Nc1ccc(C(=O)N2CCOCC2)cc1)c1cccs1	>57	-4.0%
CCOC(=O)C1CCN(C(c2cc3cc(C)cc(C)c3[nH]c2=O)c2nnnn2C2CCCCC2)CC1 (stereo not given)	>57	8.5%
CCCc1nnc(SCc2ccc(OC)cc2)n1N	>57	0.7%
Cc1cc(N(C)C)c(C#N)c(=O)[nH]1	>57	9.4%
C/C=C(\CS(=O)(=O)c1ccccc1)S(=O)(=O)c1ccccc1	>57	4.4%
Cc1c(NC(=O)C(C)Oc2ncnc3ccccc23)c(=O)n(-c2ccccc2)n1C (stereo not given)	>57	10.3%
CC(C)N(Cc1nc(-c2ccccc2)no1)C(=O)CCCN1C(=O)c2ccccc2C1=O	>57	-17.3%
COC(=O)C/C=C\[C@@H](C)[C@@H](/C=N\OC[C@@H](O)COCc1ccco1)OC	.	-11.1%[8 µM]
CO[C@H]1COC(=O)[C@@H](C)COC(=O)[C@@H](Cc2ccccc2)NC(=O)C/C=C\[C@H]1C	.	-5.6%[8 µM]
C=CCn1c(COc2ccc(Cl)cc2)nnc1SCC(=O)N1CC(=O)Nc2ccccc21	>57	-6.5%
Cc1ccc(-c2nnn(CC(=O)N(c3ccccc3)C(C(=O)NC3CCCC3)c3ccco3)n2)o1 (stereo not given)	>57	1.2%
Cc1ccc2nc(SC(C)C(=O)N3CCCC3)[nH]c2c1 (stereo not given)	>57	0.8%
Cc1csc2ncc(C(=O)NCc3ccccc3Cl)c(=O)n12	>57	-27.9%
N[C@H](Cc1ccc2oc3cc(=O)c4ccccc4c-3nc2c1)C(=O)O	>57	5.8%[8 µM]
COc1cccc(Oc2cn[nH]c2-c2ccc(OC)cc2O)c1	>57	-7.0%
O=C(O)[C@@H]1CCCN1c1ncnc2sc3c(c12)CCC3	>57	-0.8%
C=C(C)COc1ccc(-c2nc(N)ncc2Oc2ccccc2OCC)c(O)c1	>57	-7.6%
O=C(CCSc1ccc(Cl)cc1)N1CCN(c2ncccn2)CC1	>57	13.9%
O=S(=O)(c1cc(Cl)ccc1Cl)N1CCN(Cc2ccc3c(c2)OCO3)CC1	>57	?
CS(=O)(=O)N1CCCC(C(=O)NC2CCCCCCC2)C1 (stereo not given)	>57	-1.1%
COc1cc2[nH]c(=O)n(CCC(=O)NC3CCN(Cc4ccccc4)CC3)c(=O)c2cc1OC	>57	-8.3%
CCOC(=O)CSc1cc(=O)n(C)c2cc(Cl)ccc12	>57	-2.9%
CC(C)NC(=O)N1CCC2(CC1)CCN(C(=O)c1cc(C(F)(F)F)cc(C(F)(F)F)c1)CC2	>57	?
COCC(C)n1c(C)cc(C(=O)Cn2c(=O)oc3ccccc32)c1C (stereo not given)	>57	26.8%
CSc1nc(-c2ccccc2)ccc1C(N)=O	>57	-2.8%
Cc1c(C(=O)N2CCCCC2)sc(N)c1C#N	.	-2.7%
Cc1cc(=O)oc2cc(OCC3CC(c4ccc(N(C)C)cc4)=NO3)ccc12 (stereo not given)	>57	-12.6%
CCCC(=O)C1=C(c2ccccc2)C(C#N)(C#N)C(C#N)=C1N	>57	?
O=C(COC(=O)c1ccccn1)Nc1c(Cl)cccc1Cl	>57	-1.1%
CCOC(=O)c1c(C)[nH]c(C)c1C(=O)Cn1nnc(-c2ccccc2C)n1	>57	?
O=C(CCNS(=O)(=O)c1ccc(Br)s1)N1CCCCC1	>57	-11.9%
c1ccc(-c2noc(-c3cccnc3)n2)cc1	.	10.9%
COc1ccc(N2CCN(C(=O)CSc3ncccc3-c3nc4ccccc4[nH]3)CC2)cc1	>57	-13.9%
Cc1ccc(/C(O)=C2/C(=O)C(=O)N(Cc3cccnc3)C2c2ccccn2)cc1 (stereo not given)	>57	6.4%
Nc1nc(SCCOc2ccccc2)n[nH]1	>57	-3.4%

Arranged by formula weight (ascending): three of the compounds above
SMILES	SmPrx2 inh	LT uptake inh
Nc1nc(SCCOc2ccccc2)n[nH]1	>57	-3.4%
O=C(COC(=O)c1ccccn1)Nc1c(Cl)cccc1Cl	>57	-1.1%
Cc1cc(=O)oc2cc(OCC3CC(c4ccc(N(C)C)cc4)=NO3)ccc12 (stereo not given)	>57	-12.6%

Continuation:
SMILES	SmPrx2 inh	LT uptake inh
CC(=O)NCCc1ccc(S(=O)(=O)N2CCCC2)cc1	.	1.0%
COCCn1c(=O)c(-c2ccc(F)cc2)nc2cnc(OC)nc21	>57	-3.2%
Cc1nnc(SCC(=O)N2CCN(S(=O)(=O)c3ccc(Cl)cc3)CC2)n(N)c1=O	>57	7.0%
O=C1C2C3CCCC3=C3CCCC3C2C(=O)N1c1ccc(Cl)cc1 (stereo not given)	>57	?
CN(C)c1ccc(/C=[N+](\[O-])C(C)(C)/C=N/O)cc1	?	-7.4%
CN(Cc1nc(-c2cccnc2)no1)S(=O)(=O)c1ccccc1	>57	-6.9%
CC12CCCCN1CCCc1c2[nH]c2ccccc12 (stereo not given)	>57	-26.0%
Cc1nn2cc(-c3ccccc3)nc2s1	>57	3.7%
CC12CCC(C(=O)O)(c3nc(C#N)c(C#N)nc31)C2(C)C (stereo not given)	>57	-2.9%
Cc1ccc2c(CC(=O)Nc3nc(C)cs3)coc2c1	>57	?
O=C(Cn1ccc2ccccc2c1=O)N1CCN(Cc2ccc3c(c2)OCO3)CC1	>57	10.0%
COc1cccc(NC(=O)CSc2nccn2-c2cccc(OC)c2)c1	>57	-7.2%
Cc1ccc(Cn2c(=O)c3c(nc4n3CCCN4Cc3ccccc3)n(C)c2=O)cc1	>57	-10.2%
COc1ccc(-n2nc3c(c2NC(=O)C2CC2)CS(=O)C3)cc1 (stereo not given)	>57	8.7%
O=C(Nc1ccccc1)N1CCCC2(CCN(C(=O)c3ccco3)CC2)C1	>57	7.8%
CCn1c(C(=O)N2CCC(C(=O)N3CCC4(CC3)OCCO4)CC2)cc2sccc21	>57	-1.6%
Cc1cccc(-c2noc(CN(C(=O)CCc3ccccc3)C(C)C)n2)c1	>57	-8.3%
CC1OC(Nc2cccc3ccccc23)C(O)C(O)C1O (stereo not given)	.	5.7%
CS(=O)(=O)N1CCC(c2noc(-c3ccc(C(F)(F)F)cc3)n2)CC1	>57	3.7%
CCCS(=O)(=O)NCc1ccc2c(c1)cc(C)n2C	>57	1.1%
Cc1noc(C)c1-c1ccc2ncnc(Nc3ccccc3)c2c1	>57	11.0%
CCOc1c(P(=S)(N(C)C)N(C)C)c(C)nn1-c1ccccc1	>57	-14.2%
O=C(NCCc1cn2ccsc2n1)c1cccs1	>57	20.6%
CN1C(=O)CC[C@@H]1c1cccnc1	>57&>57&>57	-14.2%
O=C(Nc1nnc(SCc2ccc(Cl)cc2)s1)c1ccco1	>57	-4.2%
Cc1cc(C(=O)N2CCCC2C(=O)O)c(C)o1 (stereo not given)	>57	-6.3%
CCCCN1CCc2c([nH]c3ccc(C)cc23)C1=O	>57	-7.0%
O=C(Oc1ccccc1)N1CCC2(CC1)CCN(c1cccc(-c3ccccc3)c1)CC2	>57	?
CCc1c(C)nc(N)n2c(SCC(=O)N3CCN(c4ccccc4F)CC3)nnc12	>57	-3.6%
Cc1nc2ccc(S(=O)(=O)NCC(=O)N3CCCCC3)cc2s1	>57	-3.9%
CCCCCCC1C(C#N)=C(N)OC2=C1C(=O)CCC2 (stereo not given)	>57	14.2%
CC#CCN(CC#CC)S(=O)(=O)c1ccc(-n2cnnn2)c(OC)c1	>57	-5.8%
CCCc1ncc(C[n+]2ccccc2C)c(N)n1	>57	-4.2%[3.58 µM]
CCCc1cc(=O)[nH]c(/N=C(/NC(=O)C(C)N2C(=O)c3ccccc3C2=O)Nc2ccccc2)n1 (stereo not given)	>57	2.4%
Cn1c(CCN2CCOCC2)nc2cc(NC(=O)COc3ccc(Cl)cc3)ccc21	>57	-11.3%
CCOC(=O)C1=C(C)NC(C)=C(C(=O)OCC)C1C(=O)OCC(=O)N1CCc2ccccc21	>57	0.3%

Profiles from above. Screens in order: SmPrx2 inh, LT uptake inh
CCCc1ncc(C[n+]2ccccc2C)c(N)n1 across the screens: >57, -4.2%[3.58 µM]
CCCCCCC1C(C#N)=C(N)OC2=C1C(=O)CCC2 (stereo not given) across the screens: >57, 14.2%
